GALR2 ag: agonists of human galanin receptor 2 (GALR2) | O43603 | GALR2-expressing cells, agonist activation read-out | activation, %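 (tested at 5 µM)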 | 140,000 tested, 0.48% active | AID 803;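 active = above mean plus 3 SD of all compounds, about 5% in these data, not always enough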;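 also: 0% = vehicle buffer wells and 100% = reference agonist at full effect; tested in CHO reporter cells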
Target sequence (O43603 whole entry, looked up): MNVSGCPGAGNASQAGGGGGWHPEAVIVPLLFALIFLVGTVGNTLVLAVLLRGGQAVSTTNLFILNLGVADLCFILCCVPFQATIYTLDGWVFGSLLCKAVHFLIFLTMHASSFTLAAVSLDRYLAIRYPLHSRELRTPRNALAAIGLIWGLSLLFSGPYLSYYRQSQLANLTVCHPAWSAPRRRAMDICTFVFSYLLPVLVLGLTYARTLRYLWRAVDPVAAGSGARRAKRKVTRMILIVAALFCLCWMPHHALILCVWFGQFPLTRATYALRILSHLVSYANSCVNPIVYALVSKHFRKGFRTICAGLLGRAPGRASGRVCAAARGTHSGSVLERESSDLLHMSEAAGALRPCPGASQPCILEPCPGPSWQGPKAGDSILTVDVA
INS promoter inh: TRM-6 insulin promoter activity inhibition. TRM-6 cells (human fetal islet line), insulin promoter-eGFP reporter, imaging; reporter expression induced with tamoxifen. inhibition, % at 2 µM. 130,000 tested, 0.9% active;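 active = inhibition above the mean plus 3 SD, with well images judged a real hit on visual review, cut at about 60% in these data, passing the limit was not always enough; inconclusive = inhibition over the cutoff but images rejected on review; inactive = inhibition not above the cutoff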
RGS16-Gao: RGS16-Galphao interaction regulator (human); O15492+P09471; bead-based flow cytometry RGS16-Galphao binding, fluorescence; actives lie on both sides; binding response (% of control), % at 10 µM; 220,000 tested, 0.38% active; AID 1441;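 active = below 25% or above 175%, edge rows of some plates excepted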;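 also: Galphao activated by GDP with aluminum fluoride before binding; 100% = wells without compound and 0% = beads without RGS; some results beyond the cut were filed as inactive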
Target sequence (O15492 whole entry, looked up): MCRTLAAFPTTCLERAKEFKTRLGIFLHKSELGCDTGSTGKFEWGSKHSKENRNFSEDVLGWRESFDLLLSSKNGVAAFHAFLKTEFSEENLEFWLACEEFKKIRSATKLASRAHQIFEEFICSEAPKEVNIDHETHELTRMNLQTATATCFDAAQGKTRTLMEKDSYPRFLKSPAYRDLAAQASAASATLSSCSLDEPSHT
Target sequence (P09471 whole entry, looked up): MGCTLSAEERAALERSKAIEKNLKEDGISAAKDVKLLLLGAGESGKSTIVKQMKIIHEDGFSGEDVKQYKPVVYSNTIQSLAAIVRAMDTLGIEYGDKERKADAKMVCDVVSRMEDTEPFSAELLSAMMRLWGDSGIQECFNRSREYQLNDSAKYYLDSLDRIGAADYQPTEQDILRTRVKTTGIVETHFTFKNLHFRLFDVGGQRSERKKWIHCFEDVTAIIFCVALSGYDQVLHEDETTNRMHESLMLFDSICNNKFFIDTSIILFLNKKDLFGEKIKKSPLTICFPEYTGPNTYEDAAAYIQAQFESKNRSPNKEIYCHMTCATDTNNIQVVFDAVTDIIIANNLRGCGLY
PKD1 kinase inh: PKD1 (human) kinase inhibition; inhibition, %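 (about 10 µM by stock and volumes)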; Q15139; PKD1 kinase fluorescence polarization assay; 200,000 tested, 0.056% active;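 active = inhibition of 50% or more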;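 also: controls were vehicle for no effect and a reference inhibitor for full effect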
HSV replic up: increases HSV replication in cells; HSV replication augmentation in cells, fold increase; maximum fold increase; 220,000 tested, 0.005% active; AID 1956;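 active = peak rise of 1.5-fold or more in the series; inconclusive = self-fluorescent or not available for retest; tested in PC3 cells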;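 also: first round at 10 µM; read as green reporter fluorescence; hits show the peak of a series up to 25 µM; 1 = signal of infected wells without compound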
INS promoter inh cell count: also measured in INS promoter inh; calls as there; normalized cell count, %; measured here: cell count, toxicity; reference of the scale not given here;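 cells exposed to compound for 48 h; stained nuclei by imaging scaled within each plate; lower means fewer cells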
HSV replic up primary fold: recorded beside HSV replic up, whose call it bears; fold increase; compound at 10 µM; measured here: primary screen fold increase 10 uM; tested in PC3 cells;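 GFP signal in the first replicate; 1 = infected wells without compound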
Starred values were filed as active, the others as inactive; i = inactive; ? = inconclusive; nt = not tested or not shown.

SMILES | GALR2 ag | INS promoter inh | INS promoter inh cell count | RGS16-Gao | PKD1 kinase inh | HSV replic up | HSV replic up primary fold
CCOc1ccc2[nH]c(=O)c(CN(Cc3ccco3)C(CC)c3nnnn3Cc3ccccc3)cc2c1 (configuration not stated) | -2.2 | nt | nt | 106 | -6 | i | 0.97
COCCNC(=O)c1onc(CSc2cc(C)cc(C)c2)c1C(=O)NCCOC | nt | nt | nt | 99 | nt | i | 1
O=C(O)C#Cc1cccc2ccccc12 | nt | nt | nt | 103 | nt | i | 1
Cc1cc2n(n1)C(c1ccccc1)CC(c1ccc(Br)cc1)=N2 (configuration not stated) | 0.0 | -27 | 97 | 137 | 5 | ? | nt
O=C(CCCN1C(=O)c2ccccc2C1=O)OC1CSCC1NC(=O)c1ccccc1 (configuration not stated) | 0.1 | -8 | 185 | 93 | -2 | i | 0.99
CSc1ccccc1NC(=O)c1cc(C)on1 | -2.3 | -42 | 100 | 99 | 0 | i | 0.94
c1ccc(OCc2nnnn2-c2ccccc2)cc1 | -0.5 | nt | nt | 100 | 4 | i | 1.1
O=C(Nc1ccccc1C(F)(F)F)N1CCN(c2ccccn2)CC1 | nt | nt | nt | 110 | 7 | i | 0.98
Cc1cc(C)n(-c2cccc(Cl)c2C#N)n1 | nt | nt | nt | 102 | nt | i | 1.1
COc1ccc(/C=N\NC(=O)C2C(=O)NCC2c2ccccc2)cc1O (configuration not stated) | 0.1 | -3 | 78 | 101 | -3 | i | 0.98
CN(C)CCCN=C(NO)c1ccc(Cl)cc1Cl | nt | nt | nt | 101 | nt | i | 1
N/C(=N\OC(=O)c1ccc(F)cc1)c1nonc1N | -2.5 | -42 | 48 | 74 | -2 | i | 0.77
COc1ccccc1NC(C#N)c1ccccc1OCc1ccccc1 (configuration not stated) | -0.4 | 14 | 167 | 99 | -7 | i | 0.9
Cc1ccccc1OCc1nnc(SCC(=O)N2CCc3ccccc32)n1C | -0.1 | 11 | 134 | nt | -6 | i | 1.1
CC(=O)Nc1ccc(C(=O)OCC(=O)Nc2ccccc2F)cc1 | nt | 0 | 151 | 102 | -1 | i | 1.1
O=C(Cc1ccccc1)Nc1ccc(NC(=O)C2CCCCC2)nc1 | nt | -4 | 82 | 102 | -3 | i | 1.1
COc1ccc(-c2nnc(SCc3ccccc3F)o2)cc1 | -1.6 | 87* | 61* | 97 | 0 | i | 0.88
COc1cccc(-c2nn(-c3ccccc3)cc2/C=C(\C#N)C(=O)NCCCn2ccnc2)c1 | 0.2 | 50 | 131 | 117 | -7 | i | 0.98
O=C(c1ccc(Br)cc1)N1CCN(S(=O)(=O)c2ccccc2)CC1 | -0.4 | nt | nt | 93 | -8 | i | 1
N#Cc1nc(-c2ccc(OCc3ccccc3)cc2)oc1N1CCC(C(N)=O)CC1 | -0.6 | 36 | 89 | 71 | 6 | nt | nt
NNC(=O)CCN1CCN(C(c2ccccc2)c2ccccc2)CC1 | nt | nt | nt | 92 | 5 | i | 0.98
O=C(Cc1ccccc1[N+](=O)[O-])NCCSCc1c(F)cccc1Cl | -2.4 | 38 | 61 | 104 | 5 | i | 1.1
CN(C)CCNc1oc(COc2ccc(Cl)cc2)nc1C#N | -1.7 | 41 | 107 | 101 | 1 | i | 1
CCOc1ccc(CN2CCN(CCCn3cccn3)CC2CCO)cc1 (configuration not stated) | nt | nt | nt | 105 | 3 | i | 1
O=C1CC(c2cccc(Br)c2)C2=C(CCCC2=O)N1 (configuration not stated) | -1.6 | -30 | 82 | 123 | -6 | nt | nt
Cc1ccccc1C(=O)NCC(=O)NNC(=S)NC(=O)c1ccccc1 | -1.0 | 23 | 134 | 93 | -9 | i | 1.1
O=C(Nc1cccc(Cl)c1N1CCOCC1)c1cccnc1Cl | nt | nt | nt | 98 | nt | i | 1.1
Cc1[nH]nc2c1C(c1cn[nH]c1-c1ccc(F)cc1)C(C#N)=C(N)O2 (configuration not stated) | -0.6 | 0 | 136 | 96 | -9 | i | 0.91
CCOC(=O)N1CCN(CC(=O)n2c(C)c(C)c3ccccc32)CC1 | -1.5 | 15 | 148 | 97 | -8 | i | 0.94
Cc1ccc(Nc2cc(C(=O)NCCCN3CCOCC3)c3ccccc3n2)c(C)c1 | nt | -7 | 151 | 103 | -8 | i | 1.1
COc1ccc(OC)c(-c2cc(C(=O)N3CCc4ccccc4C3)no2)c1 | -3.2 | nt | nt | 98 | -3 | i | 0.99
COc1ccc(/C(=C/Nc2cccc(Br)c2)C(C)=O)cc1OC | nt | 12 | 124 | 101 | 7 | i | 1.1
O=P(c1ccccc1)(c1ccccc1)C(O)c1ccco1 (configuration not stated) | -0.8 | 38 | 77 | 100 | -15 | i | 0.85
COc1cc(C(=O)Nc2ccc3c(c2)N(C(=O)CN2CCN(C)CC2)c2ccccc2CC3)cc(OC)c1OC | nt | nt | nt | 105 | nt | i | 0.89
CCOc1ccccc1OCC(=O)Nc1ccc(S(=O)(=O)Nc2nc(C)cc(C)n2)cc1 | -1.2 | 4 | 105 | 92 | -12 | i | 0.76
COc1cccc(C2c3[nH]c4ccccc4c3CCN2Cc2ncc[nH]2)c1 (configuration not stated) | nt | nt | nt | 95 | -2 | i | 1
COc1cc(OC)cc(-n2nc(C(=O)NCCCN3CCOCC3)c3ccccc3c2=O)c1 | -0.3 | nt | nt | 99 | -13 | i | 1
CCOP(=O)(c1ccccc1)C1(C#N)CC1 (configuration not stated) | nt | nt | nt | 105 | 0 | i | 0.91
CCCn1cc(SCC(=O)NCC2CCCO2)c2ccccc21 (configuration not stated) | -1.9 | nt | nt | 101 | -17 | i | 1.1
COC(=O)C(Cc1ccccc1)NC(=O)C(CC(C)C)NC(=O)OC(C)(C)C (configuration not stated) | -0.5 | 8 | 74 | 105 | 9 | i | 0.93
Cc1[nH]c2c(C)cccc2c1CCNC(=O)C1CCCCC1C(=O)OCC(F)(F)F (configuration not stated) | 1.2 | -56 | 111 | 104 | -8 | i | 0.94
Cc1ccc(S(=O)(=O)Nc2cc(C)c(O)cc2C)cc1 | nt | nt | nt | 102 | 8 | i | 0.84
Cn1c(=O)oc2cc(S(=O)(=O)NC(Cc3ccccc3)C(=O)N3CCCCC3)ccc21 (configuration not stated) | -0.8 | nt | nt | 106 | 1 | i | 0.98
Cc1ccc(C2=NN(C(=O)CCl)C(c3cccs3)C2)o1 (configuration not stated) | -1.2 | nt | nt | 104 | 7 | i | 1.1
Cc1cccc(C(=O)Oc2ccccc2C2C[C@]3(C)CC(=O)NC3N2C(=O)c2cccc(C)c2)c1 (some centres not stated) | -0.8 | -60 | 73 | 85 | -3 | i | 1
COc1cccc(CC(NC(C)=O)C(=O)NC2CCN(S(=O)(=O)c3ccc4ccccc4c3)CC2)c1 (configuration not stated) | -1.6 | -9 | 76 | 109 | 3 | i | 1
CCCC(=O)n1nc(-c2ccccc2)nc1SC | -2.4 | 61 | 130 | 104 | -1 | nt | nt
O=C1c2ccccc2NC(c2cccs2)N1NS(=O)(=O)c1ccccc1 (configuration not stated) | nt | nt | nt | 88 | 0 | i | 1

Quoted at random: seven compounds from above, in no set order.
SMILES | GALR2 ag | INS promoter inh | INS promoter inh cell count | RGS16-Gao | PKD1 kinase inh | HSV replic up | HSV replic up primary fold
Cc1ccc(C2=NN(C(=O)CCl)C(c3cccs3)C2)o1 (configuration not stated) | -1.2 | nt | nt | 104 | 7 | i | 1.1
Cc1ccc(S(=O)(=O)Nc2cc(C)c(O)cc2C)cc1 | nt | nt | nt | 102 | 8 | i | 0.84
N/C(=N\OC(=O)c1ccc(F)cc1)c1nonc1N | -2.5 | -42 | 48 | 74 | -2 | i | 0.77
COc1ccc(-c2nnc(SCc3ccccc3F)o2)cc1 | -1.6 | 87* | 61* | 97 | 0 | i | 0.88
c1ccc(OCc2nnnn2-c2ccccc2)cc1 | -0.5 | nt | nt | 100 | 4 | i | 1.1
COc1ccc(/C=N\NC(=O)C2C(=O)NCC2c2ccccc2)cc1O (configuration not stated) | 0.1 | -3 | 78 | 101 | -3 | i | 0.98
N#Cc1nc(-c2ccc(OCc3ccccc3)cc2)oc1N1CCC(C(N)=O)CC1 | -0.6 | 36 | 89 | 71 | 6 | nt | nt

For convenience, some entries already given.
SMILES | GALR2 ag | INS promoter inh | INS promoter inh cell count | RGS16-Gao | PKD1 kinase inh | HSV replic up | HSV replic up primary fold
COc1cc(OC)cc(-n2nc(C(=O)NCCCN3CCOCC3)c3ccccc3c2=O)c1 | -0.3 | nt | nt | 99 | -13 | i | 1
CCOP(=O)(c1ccccc1)C1(C#N)CC1 (configuration not stated) | nt | nt | nt | 105 | 0 | i | 0.91

(more compounds)
SMILES | GALR2 ag | INS promoter inh | INS promoter inh cell count | RGS16-Gao | PKD1 kinase inh | HSV replic up | HSV replic up primary fold
COCC(=O)N1CCCC(C(=O)c2ccc(Oc3ccccc3)cc2)C1 (configuration not stated) | nt | nt | nt | 94 | -9 | i | 0.88
Cc1ccc(S(=O)(=O)NCCC(=O)OCC(=O)Nc2ccccc2Cl)cc1 | nt | nt | nt | 98 | 2 | i | 1.1
CCn1c(SCC(=O)Nc2cc(C)on2)nnc1-c1ccccc1 | -2.2 | 69 | 96 | 101 | -4 | i | 0.89
COc1cccc(Cn2c(C3CC3)nc3ccc(NC(=O)c4ccco4)cc3c2=O)c1 | 0.8 | 17 | 83 | 134 | -9 | i | 0.91
CN(C)S(=O)(=O)c1cccc(NC(=O)c2cnccn2)c1 | nt | nt | nt | 104 | -5 | i | 0.93
O=C(Nc1nccs1)c1c(O)c2cccc3c2n(c1=O)CCC3 | -1.8 | 33 | 104 | 106 | -6 | i | 1
Cc1cccc(NC(=O)CCn2cnnn2)c1 | nt | 21 | 116 | 97 | -3 | i | 0.95
Cc1nnc(SCc2nnc(-c3cccs3)o2)n1C | nt | -67 | 69 | 83 | 3 | i | 1.1
Cc1ccc2[nH]c(-c3ccccc3)c(CN(C)C)c(=O)c2c1 | -1.8 | -17 | 72 | 101 | -2 | i | 0.86
Cn1c(C(O)c2ccc(Br)cc2)nc(Cl)c1Cl (configuration not stated) | nt | nt | nt | 100 | nt | i | 1.1
CCOC(=O)c1sc(NC(=O)c2ccc(Cl)s2)cc1C | -1.7 | nt | nt | 100 | -1 | i | 0.85
COc1ccccc1N(CC(=O)NCCSc1ccc(Cl)cc1)S(C)(=O)=O | nt | -35 | 101 | 94 | -9 | i | 1.1
CCc1ccc(C(=O)NC(CCSC)C(=O)OC)cc1 (configuration not stated) | nt | nt | nt | 99 | -2 | i | 0.98
CCOCCCNC(=O)C(NC(=O)CNC(=O)c1ccccc1)c1ccc(C)cc1 (configuration not stated) | -3.2 | -3 | 164 | 109 | -4 | i | 0.81
CCCCn1c(=O)cc(N2CCOCC2)[nH]c1=O | -2.1 | nt | nt | 95 | 3 | i | 0.93
CC(=O)c1cccc(NC(=O)COC(=O)c2n[nH]c3ccccc23)c1 | nt | 40 | 139 | 107 | 4 | i | 0.89
CCOc1ccc(S(=O)(=O)Nc2ccc(C(=O)NN)cc2)cc1 | nt | nt | nt | 99 | nt | i | 1
Cc1ccc(NC(=O)COC(=O)CNC(=O)C2CCCCC2)c(Br)c1 | nt | nt | nt | 101 | -1 | i | 0.95
COc1ccc(/C=C\C(=O)NCc2ccc3[nH]c(C)cc3c2)cc1OC | 0.0 | 35 | 115 | 110 | -7 | i | 0.97
CCOCCCNC(=O)c1ccc(CS(=O)(=O)Cc2cccc(C)c2)o1 | -1.0 | 8 | 112 | 101 | 9 | i | 1.2
O=S(=O)(CCSc1nc2ccccc2o1)Cc1ccccc1 | -0.6 | 20 | 80 | 115 | -2 | i | 1
CC(=O)Nc1ccc(SCC(=O)OCC(=O)NC(=O)NC2CCCC2)cc1 | nt | -25 | 106 | 101 | 2 | i | 1
Cc1cccc(Nc2nnc(SCC(=O)Nc3cccnc3Cl)s2)c1 | -0.7 | -13 | 151 | 101 | 2 | i | 0.91
COc1ccc(CNC(=O)CN(C)S(=O)(=O)c2ccc(Cl)cc2)cc1 | nt | nt | nt | 99 | -4 | i | 0.95
CCC(C)[C@H](N)c1cn([C@@H](CCCCN)C(=O)N2CCNCC2)nn1 (some centres not stated) | nt | nt | nt | 96 | -6 | i | 1.1
CCCCc1cc(=O)oc2cc(C)cc(OC(C)C(=O)O)c12 (configuration not stated) | -0.8 | 3 | 242 | 101 | -5 | i | 0.9
O=C1NC2(CCc3ccccc32)C(=O)N1CCOc1ccc(Cl)cc1 (configuration not stated) | -2.8 | -8 | 75 | 97 | 2 | i | 1.1
Cc1ccccc1C(=O)N1CCC(C(=O)Nc2cccc(F)c2)CC1 | -3.2 | 50 | 106 | 81 | -2 | i | 0.94
CCOC(=O)c1cnc(SC2CC(=O)N(c3ccc(C)cc3)C2=O)nc1N (configuration not stated) | 0.2 | 14 | 130 | 106 | -5 | i | 1.1

Source: PubChem BioAssay (several laboratories)

Compounds as they come; overall some 1.3% were active at least once.
